Compound activity (PubChem)
StopGo FLuc: lowers the firefly signal of an FMDV 2A StopGo reporter; HEK cells with a luciferase reporter of 2A StopGo recoding; Potency, µM (doses to about 57.5 µM), for the others: at the highest dose signal change, negative = less light; actives 0.23% (n = 120,000); AID 1745856; active = well fitted falling curve with a large enough effect; inconclusive = small, poorly fitted or top-dose-only effect; inactive = no such curve, though single readings can be large or run the other way; note: nearly all actives have a fitted effect of over 60% in size; overnight with compound
2A Renilla: lowers the Renilla signal of an FMDV 2A StopGo reporter | HEK cells with a luciferase reporter of 2A StopGo recoding | Potency, µM (highest dose often 57.5 µM), without a hit: at the highest dose signal change, negative = less light | actives 0.32% (n = 120,000); active means well fitted falling curve with a large enough effect; inconclusive means small, poorly fitted or top-dose-only effect; inactive means no such curve, though single readings can be large or run the other way; note: nearly all actives have a fitted effect of over 55% in size; overnight with compound
The depositor's hits bear a star; ? = inconclusive; & = joins results of further samples; [ ] = another dose, or the depositor's remark. % is set by controls: 0 for no effect and ±100 for the full control effect; potency is the fitted concentration of half-maximal effect.

SMILES	StopGo FLuc	2A Renilla
O=C(c1cccs1)N(Cc1cccc2[nH]ccc12)C1CC1	13.0%	43.4%[activator]
COc1cccc(CSc2nc3n(n2)C(CC(C)C)C(C(=O)Nc2ccccc2C)=C(C)N3)c1 (stereo unspecified)	-15.8%	-14.4%
Cc1cc(C)cc(NC(=O)C2(c3cccs3)CCOCC2)c1	-11.8%	22.0%
COc1ccccc1SC(C)C(=O)NC1CCCC1 (stereo unspecified)	-9.2%	-4.3%
CCCCN(C)C(=O)c1cccc2c(C)c(C)[nH]c12	0.5%	185.7%[activator]
Cc1ccc(C)c(NC(=O)Cn2c(=O)ccc3cc(S(=O)(=O)N4CCCC4)ccc32)c1	-13.5%	-8.3%
COc1ccc(-c2nn(C)c(=O)c3ccccc23)cc1NC(=O)COc1ccc(C)cc1	?	?
COC(=O)C1CCN(C(=O)c2sc3ccccc3c2Cl)CC1	0.0%	9.9%
O=c1c(/C=N/O)coc2ccccc12	18.5%	14.4%
COc1ccc(Nc2nnc(SC(C)C#N)s2)cc1 (stereo unspecified)	130.4%[activator]	9.9%
Cc1ccc(O)c(NC(=O)c2cc(-c3ccc4c(c3)OCO4)on2)c1	0.0%	4.5%
CCc1ccc(NC(=O)CSc2nc3c(=O)[nH]cnc3n2-c2ccc(C)cc2)cc1	34.6%[activator]	80.1%[activator]
Cc1ccc2nc(Nc3nc(C)c(Cc4cccc(Cl)c4)c(=O)[nH]3)nc(C)c2c1	14.8%	10.1%
COc1cc(Br)c(CN(C)CC(=O)N2c3ccccc3NC(=O)CC2C)cc1OC (stereo unspecified)	0.6%	-3.7%
C=CCNC(=O)NC(=O)CN(CCOC)CC(=O)Nc1cccc(C)c1C	5.2%	-13.0%
Cc1cc(C)c2nc(N3CCN(C(=O)CCS(=O)(=O)c4ccccc4)CC3)sc2c1	?	?
COc1cc(=O)n(-c2ccc(C)cc2)nc1C(=O)Nc1cccc(Cl)c1C	21.0%	5.0%
Cc1ccc(Cl)cc1N1CCN(c2nc3ccc(C(=O)c4ccccc4)cc3n3cnnc23)CC1	-14.4%	-11.0%
COc1cccc2cc(-c3csc(-c4ccc(Cl)cc4)n3)c(=O)oc12	0.0%	-10.5%
Cc1ccc(-c2nc(CS(=O)(=O)CC(=O)Nc3ccc(Br)cc3F)c(C)o2)cc1	12.7%	-5.4%
O=S(=O)(c1ccc(Br)cc1)c1nc(-c2ccco2)oc1SCc1ccccc1F	-13.3%	126.9%[activator]
Cc1cc(C)c(NC(=O)CC2CCCC2)c(C)c1	22.1%	1.7%
Cc1cccc(NC(=O)COC(=O)c2ccc3ccccc3n2)c1	3.0%	-10.1%
CCN(C(=O)Cn1cnc2c1c(=O)n(C)c(=O)n2C)c1ccc(F)cc1	19.3%	5.5%
CCCCN(C)C(=O)COc1ccc2c(=O)c(-c3ccc(OC)c(OC)c3)c(C)oc2c1	-17.0%	-5.1%
CCOC(=O)/C(C#N)=C/c1cc(Cl)ccc1OCc1ccc(Cl)cc1Cl	42.9%[activator]	9.0%
O=C(C1CCCN(Cc2cccc3ccccc23)C1)N1CCc2ccccc2C1 (stereo unspecified)	-4.4%	-11.1%
N#Cc1ccc(CSc2nnnn2-c2ccccc2)c(F)c1	36.0%[activator]	10.3%
CCOC(=O)C1CCN(C(=O)Cn2ncc3c([nH]c4ccccc43)c2=O)CC1	-11.4%	-8.6%
COc1ccc(NC(=O)c2nn(-c3ccccc3)ccc2=O)cc1	0.0%	10.8%
CS(=O)(=O)Cc1cccc(C(=O)Oc2ccccc2Br)c1	5.8%	5.1%
O=C(O)/C=C/c1cc(Cl)ccc1Cl	4.1%	5.5%
CCC(c1ccc(C(C)=O)cc1)C(CC)c1ccc(C(C)=O)cc1 (stereo unspecified)	-0.6%	3.7%
Clc1ccccc1CNCCCSc1nnnn1-c1ccccc1	-2.0%	-3.5%
O=C(COc1cccc(Cl)c1Cl)c1ccc2ccccc2c1	22.3%	-5.1%[1.06 µM]
CCC(C)(C(=O)NC1CCCC1)N(C(=O)CNC(=O)c1ccccc1)c1ccc(C)cc1 (stereo unspecified)	-7.9%	9.0%
CC(C)c1cc(C(=O)Nc2ccc(Cl)c(C(F)(F)F)c2)nn1C1CCS(=O)(=O)C1 (stereo unspecified)	-9.0%	-12.0%
Cc1cc(C)c2c(c1)/C(=N/NC(=S)NC1CCCCC1)CCC2	5.3%	10.0%
Cc1cc(C)cc(C(=O)Nc2ccc3oc(-c4cccnc4)nc3c2)c1	-8.9%	12.3%
CC(C)c1ccccc1NC(=O)Cn1nc(C(=O)O)c2ccccc2c1=O	5.6%	-17.5%
C/C(=N\NC(=O)c1ccc(C(C)(C)C)cc1)c1ccc(C)cc1C	30.6%	11.2%
C[C@@H]1C[C@H]2[C@@H]3CCC4=CC(=O)C=C[C@]4(C)[C@@]3(F)[C@@H](O)C[C@]2(C)[C@@]1(O)C(=O)CO	7.1%[11.5 µM]	13.2%
COc1cc(C2c3c(oc4ccc(F)cc4c3=O)C(=O)N2Cc2ccc3c(c2)OCO3)ccc1O (stereo unspecified)	-5.8%	-16.3%
COc1ccc(Br)cc1C[N+]1(C)CCCCC1	-11.0%	-1.1%
Fc1cccc(CN(Cc2ccco2)C2CCCC2)c1	3.9%	-4.2%
CCc1ccc(-c2noc(CN3CCc4cc(OC)c(OC)cc4C3)n2)cc1	72.7%[activator]	-9.3%
CC(Oc1ccccc1)C(=O)NCc1ccnc(N2CCCC2)c1 (stereo unspecified)	6.9%	-4.5%
NC(Cc1ccc(F)cc1)c1ccccc1 (stereo unspecified)	-9.0%	6.5%
CC(C)=CC(=O)Nc1ccccc1SCc1ccsc1	54.5%[activator]	20.7%
Cc1cccc2sc(N(Cc3cccnc3)C(=O)C3CCCCC3)nc12	-14.7%	16.5%
New compounds follow:
SMILES	StopGo FLuc	2A Renilla
CCCCNC(=O)c1cnn2c(C)c(Cc3c(F)cccc3Cl)c(C)nc12	-14.3%	19.4%
COc1ccc(C(=O)NCCn2cc(SCc3cccc(F)c3)c3ccccc32)cc1OC	?	?
CCOCCCn1c(=N)c(S(=O)(=O)c2ccccc2)cc2c(=O)n3cc(C)ccc3nc21	3.1%	23.7%
Cc1ccc(C)c(Oc2coc3cc(OC(=O)c4ccco4)ccc3c2=O)c1	-6.9%	2.7%
CCOC(=O)c1ccc(Nc2nc(N)c3cc(OC)c(OC)cc3n2)cc1	7.7%	-17.1%
O=C(COC(=O)C1C=CCCC1)c1ccc(Cl)cc1 (stereo unspecified)	16.4%	0.9%
CCCC(C)C1(CC)C(=O)N=C(S)NC1=O (stereo unspecified)	-7.3%	2.4%
CCc1ccc2c(c1)C(O)(c1c[nH]c3ccccc13)C(=O)N2 (stereo unspecified)	36.2%[activator]	22.6%
CC(=O)N1CCN(c2csc3ccc(Cl)cc3c2=O)CC1	24.1%	39.0%[activator]
CCOc1ccc(CNc2nc3nc(C)c(Cc4ccccc4)c(=O)n3[nH]2)cc1	-1.6%	0.2%
COc1ccc(CNC(=O)CS(=O)Cc2nc(-c3cccc(C)c3)oc2C)cc1 (stereo unspecified)	6.5%&7.9%	1.8%&1.0%
COC(=O)C1CN(CCc2ccccc2)CCS(=O)(=O)N1Cc1ccc(Cl)cc1 (stereo unspecified)	82.2%[activator]	20.6%
O=C1CS(=O)(=O)C2(C(=O)N(Cc3cccc(F)c3)c3ccccc32)N1c1ccccc1 (stereo unspecified)	43.5%[activator]	5.6%
CCCCCCCOc1ccc(OC(=O)c2ccc(-c3ccc(CCC)cn3)cc2)cc1	45.7%[activator]	21.4%
CCOc1ccc(NC(=O)c2ncn(-c3ccccc3)n2)cc1	68.3%[activator]	3.2%
O=C(Cc1cn2ccsc2n1)Nc1cccc(S(=O)(=O)N2CCCC2)c1	-1.5%	37.5%[activator]
O=S(=O)(NCCO)c1ccc(Cl)cc1	3.4%	4.5%
COc1cc(C(=O)N2CCN(c3nccs3)CC2)cc(Cl)c1OC(C)C	-22.2%	-2.3%
CC(C)=CC1C(C(=O)NC2CC(C)(C)NC(C)(C)C2)C1(C)C (stereo unspecified)	1.6%	5.2%
COc1ccc(OC)c(NC(=O)c2cc3c(=O)oc4ccccc4c3s2)c1	-9.9%	-2.6%
CC(C)C(C)NC(=O)CSc1ccc2ccccc2n1 (stereo unspecified)	39.5%[activator]	2.6%
CSC1=NC2(CCN(C(=O)NC3CCCCC3)CC2)N=C1c1ccc(C(C)(C)C)cc1	-16.3%	-10.9%
CC(Sc1nc(C(F)(F)F)nc2ccccc12)C(=O)N1c2ccccc2CC1C (stereo unspecified)	1.8%	-0.2%
COc1ccccc1CNC(=O)Cc1c(C)c2ccc(O)cc2oc1=O	54.0%[activator]	25.1%
CCc1ccccc1NC(=O)N1CCN(C(=O)c2nsc3ccccc23)CC1	-5.0%	-14.9%
COc1ccc(NC(=O)C2CCCN(S(=O)(=O)c3cn(C)cn3)C2)cc1Cl (stereo unspecified)	7.3%	17.6%
Cc1ccc(C)c(NS(=O)(=O)c2cc(-c3cnc(C)o3)ccc2C)c1	?	4.2%
Cc1oc(-c2cccc(Cl)c2)nc1CN1CCC(C(=O)NCc2ccc(F)cc2)CC1	-15.0%	-9.1%
O=C(Nc1ccc(Cl)c(C(F)(F)F)c1)c1ccc(I)cc1	?	?
CCc1ccccc1-n1c(C)c(C)n2c3c(=O)[nH]c(=O)n(C)c3nc12	18.0%	4.3%
CCCNc1nc(-c2ccc3c(c2)CCC(=O)N3)cs1	189.9%[activator]	21.5%
CCCc1nn(-c2cc(Cl)ccc2OC)c2c1C(=O)CCC2	4.5%	2.7%
O=C(Nc1nc(-c2ccc(S(=O)(=O)N3CCCCC3)cc2)cs1)c1ccco1	?	?
Cc1ccc2nc(SCC(=O)Nc3ccccc3C(=O)Nc3ccc4c(c3)OCO4)[nH]c2c1	125.5%[activator]	28.7%
COc1ccc(-c2nc3c(C#N)c[nH]n3c2NC2CCCC2)cc1	0.0%	1.9%
CCCCN(C)C(=O)C1CCC(CNS(=O)(=O)c2ccc(Cl)cc2)CC1 (stereo unspecified)	?	-10.5%
COc1ccc(-n2c(C)nc3cc(C(=O)NC4CCCCCC4)ccc32)cc1	5.8%	62.6%[activator]
O=C(NC(c1ccc(Cl)cc1)C1CC1)c1ccccc1C(F)(F)F (stereo unspecified)	0.0%	-15.6%[1.06 µM]
O=C(c1c[nH]c2ccccc12)N1CCN(C(=O)C2CCCCC2)CC1	-8.8%	-13.1%
NC(N)=NN=C1CCCCCCCCCCC1	?	?
CC(C)C(CNc1ccc2nnnn2n1)N1CCN(C)CC1 (stereo unspecified)	-10.7%	-6.8%
CC(=O)c1cnn(-c2cc(Oc3ccc(S(=O)(=O)c4ccccc4)cc3)nc(C)n2)c1C	0.0%	3.3%
CNc1snc(C)c1C(=O)N(C)CCOc1ccccc1C	-16.8%	-23.5%
O=C(COC(=O)c1cccc(C(F)(F)F)c1)c1cccc([N+](=O)[O-])c1	44.8%[activator]	1.4%
CNC(=O)Cn1nc(-c2ccc(Cl)cc2)c2ccccc2c1=O	0.7%&-9.4%	0.9%&1.2%
Cc1cccc(-c2cc(Nc3cccc(C(=O)N(C)Cc4ccccc4)c3)ncn2)c1	-1.9%	?
O=C(NCCc1ccccc1)c1cnn(-c2ccc(F)cc2)c1-n1cccc1	0.0%	6.6%
Nc1nc2nc(-c3ccccc3)cc(=O)n2[nH]1	0.9%	-7.7%
Cc1ccc(Nc2c(-c3c[nH]c4ccccc34)nc3cc(C)ccn23)cc1	207.8%[activator]	40.2%[activator]
CCOc1ccc(C(=O)Nc2ccc3nc(SCC(=O)N4CCc5ccccc54)sc3c2)cc1	-3.7%	-12.8%
Next section
SMILES	StopGo FLuc	2A Renilla
CCN(CC)C(=O)c1sc2c(c1C)c(=O)n(-c1ccc(C)c(C)c1)c(=O)n2Cc1cccc(Cl)c1	-19.8%	9.9%
N#Cc1ccc(CSc2nnc(-c3c[nH]c4ccccc34)o2)cc1	-23.6%	-18.3%
CCCNc1c(NC(=O)Nc2ccc(OC)cc2OC)c(=O)oc2ccccc12	4.8%	2.4%
CSc1cccc(NC(=O)CSc2nnc(C(C)N3C(=O)COc4ccccc43)n2C)c1 (stereo unspecified)	9.0%	4.3%
CCOc1ccc2c(=O)c(Oc3ccccc3)c(C(F)(F)F)oc2c1	-0.8%	8.5%

A portion of the library; rates above refer to the full screens.
